HIV Env fusion: blocks HIV Env-driven cell-cell fusion. actives 1.1% (n = 360,000). inhibition, % at 12.3 µM. HeLa-JRFL Env/CEM21 cell fusion, luciferase;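 active = mean replicate inhibition score of at least 50 and every replicate individually at or above 50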;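 note: 0% = plate neutral controls and 100% = maraviroc near 300 nM; one replicate is shown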
MT1-MMP act inh: blocks activation of human MT1-MMP | HT1080 RFP-PRO-GFP cells, GFP/RFP ratio fluorescence, overnight; percent of plate control window, DMSO zero | GFP/RFP ratio change, % at 20 µM | actives 0.061% (n = 360,000) | AID 651647;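 active = GFP/RFP ratio change of at least 30% with cell ATP level not reduced by more than half and red fluorescence within 50% of control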; note: strong numbers were not always called active
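Test system: HT1080 RFP-PRO-GFP cells; Benchmarks: DMSO and RFP-L50D-GFP cell wells; Timing: cells overnight before dosing, compound overnight, 37 °C, 5% CO2; Compound: one 20 µM compound dose with 1% DMSO; Read-out: GFP/RFP fluorescence ratio.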
Yeast UUG start: yeast start codon fidelity modulation | S. cerevisiae UUG-firefly luciferase reporter, luminescence/redox ratio | activity score, % at 18.7 µM | actives 0.13% (n = 350,000) | AID 602363;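 active = replicate mean at a twofold rise or more, about +100% in these data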;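 note: firefly luciferase made from a UUG start codon reports start codon fidelity; reporter light over untreated wells divided by growth signal over untreated wells; some hits fall short of that in this replicate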
Rce1 inhib: inhibitors of yeast Ras-converting enzyme; Q03530; yeast membranes, quenched prenylated peptide cleavage fluorescence; calls only; actives 0.27% (n = 290,000);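 active = fall in fluorescence gain of 50% or more versus controls, with final raw signal at or below 3038400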;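 note: plate controls were neutral control wells for no effect and wells lacking membranes for full effect; tested at 10 µM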
Target sequence (Q03530 whole entry, looked up): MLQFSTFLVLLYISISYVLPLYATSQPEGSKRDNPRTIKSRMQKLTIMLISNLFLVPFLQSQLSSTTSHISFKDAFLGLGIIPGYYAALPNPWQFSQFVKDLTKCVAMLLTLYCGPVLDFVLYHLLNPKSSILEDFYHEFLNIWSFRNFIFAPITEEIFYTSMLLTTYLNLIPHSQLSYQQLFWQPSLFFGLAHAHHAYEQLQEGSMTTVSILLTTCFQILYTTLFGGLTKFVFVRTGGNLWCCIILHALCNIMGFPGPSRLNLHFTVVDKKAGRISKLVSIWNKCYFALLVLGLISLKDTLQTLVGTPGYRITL
eIF4H FP inh: inhibitors of RNA binding by human eIF4H | Q15056 | eIF4H fluorescence polarization binding assay | inhibition, % at 35 µM | actives 0.94% (n = 290,000);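 active = 50% or more with normal probe brightness, or confirmed in later tests; about a fifth of its hits are not listed in these tables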;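 note: calls also rest on retests at 20 µM and on dose response follow-up; 0% = protein and probe with vehicle and 100% = probe without protein; strong numbers were not always called active; many hits fall short of the cut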
CSC inhib: cancer stem cell inhibition; cancer stem cell-like cells viability, luminescence; inhibition, % at 7.5 µM; actives 1.1% (n = 300,000); AID 2717;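 active = mean at 75% or more and at least half the replicates too; tested in HMLE shEcad cells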;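 note: 0% = median of negative and 100% = median of positive control wells; the first replicate is given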
PABP FP inh: PABP-poly(A) binding inhibition; P11940; AID 2014; actives 1% (n = 290,000); inhibition, % at 35 µM; PABP-poly(A) RNA binding, fluorescence polarization;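 active = 50% or more with normal probe brightness, or confirmed in later tests; about a fifth of its hits are not listed in these tables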;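 note: calls also rest on retests at 20 µM and on dose response follow-up; controls were probe without protein and protein plus probe with vehicle; some compounds called inactive have numbers as strong as hits; many hits fall short of the cut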
Target sequence (P11940 whole entry, looked up): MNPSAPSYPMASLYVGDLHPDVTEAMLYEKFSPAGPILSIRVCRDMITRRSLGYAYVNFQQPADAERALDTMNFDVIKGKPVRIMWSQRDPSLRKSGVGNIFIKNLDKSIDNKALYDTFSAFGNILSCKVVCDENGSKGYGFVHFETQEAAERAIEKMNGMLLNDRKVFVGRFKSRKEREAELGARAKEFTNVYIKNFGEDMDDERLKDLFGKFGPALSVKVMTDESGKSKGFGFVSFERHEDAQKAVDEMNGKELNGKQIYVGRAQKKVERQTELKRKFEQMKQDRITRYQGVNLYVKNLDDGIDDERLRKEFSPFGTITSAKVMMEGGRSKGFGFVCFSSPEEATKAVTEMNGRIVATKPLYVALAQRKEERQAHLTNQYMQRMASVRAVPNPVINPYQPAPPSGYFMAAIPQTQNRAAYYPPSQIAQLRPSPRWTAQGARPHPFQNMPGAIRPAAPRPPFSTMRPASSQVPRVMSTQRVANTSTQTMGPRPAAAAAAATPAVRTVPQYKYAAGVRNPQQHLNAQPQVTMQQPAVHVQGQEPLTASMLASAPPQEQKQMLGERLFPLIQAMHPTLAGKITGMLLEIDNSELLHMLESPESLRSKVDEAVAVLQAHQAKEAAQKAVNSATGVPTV
eIF4H FP inh retest: further read-out of eIF4H FP inh, marked with its call; inhibition, %; compound at 20 µM; confirmation average;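 mean of two retest wells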
PABP FP inh retest: second read-out of PABP FP inh, no call of its own (marks repeat the call); inhibition, %; compound at 20 µM; confirmation repeats;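 mean of two retest wells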
MT1-MMP act inh RFP: also measured in MT1-MMP act inh; calls as there; RFP signal change, %; measured here: RFP expression control read;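 0 = vehicle wells; hits needed this value within 50% of zero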
The depositor's hits bear a star; i = inactive; / = not tested or not shown. The list is partial (hit frequency here may not be typical).

SMILES	HIV Env fusion	MT1-MMP act inh	MT1-MMP act inh RFP	Yeast UUG start	Rce1 inhib	eIF4H FP inh	CSC inhib	PABP FP inh	others
COc1ncnc(NS(=O)(=O)c2ccc(N)cc2)c1OC	5	5	6	-11	/	/	-1	/
COc1ccc([N+](=O)[O-])cc1NC(=O)C(C)NNC(=O)c1cccc([N+](=O)[O-])c1 (stereo unspecified)	4	2	-4	-5	/	/	7	/
Nc1nc(N)c(N=Nc2ccc(SCC(=O)O)cc2)c(=O)[nH]1	10	-1	2	-15	i	3	-3	14
CCn1c(C)cc2c(c1=O)C(c1ccccc1Br)C(C#N)=C(N)O2 (stereo unspecified)	-17	-4	3	-8	i	12	-2	8
COc1ccc(C2C(C(=O)N3CCN(c4ccccc4F)CC3)c3ccccc3C(=O)N2C)cc1 (stereo unspecified)	49	-2	-4	-21	i	-7	1	43
CCN(Cc1ccncc1)C(=S)Nc1ccc(Cl)cc1	14	-6	-3	/	i	4	4	-9
O=C(COC(=O)/C=C/c1ccco1)NCc1ccc(Cl)cc1	/	-3	5	-15	/	/	-4	/
Cc1nc2c(cnn2-c2ccccc2)c(=O)n1/N=C/c1ccccc1	-3	2	-5	0	i	5	-1	-3
CCOC(=O)c1cc2c(N)c(C(=O)c3cc(C#N)c(SC)nc3C)sc2nc1C	-37	-9	-6	-16	i	-3	18	-2
CC(=O)Nc1cccc(C(=O)N/N=C/c2ccccc2F)c1	-20	0	2	/	i	-9	0	10
Cc1ccccc1Cn1c(C)nc2ccccc21	10	9	-29	-12	i	-10	3	-3
Cc1ccc(S(=O)(=O)N(C)CC(=O)NCC(c2ccco2)N(C)C)cc1 (stereo unspecified)	/	-1	3	-13	/	/	23	/
CCN(CC)S(=O)(=O)c1ccc(S(=O)(=O)Nc2ccc3c(c2)oc2ccccc23)cc1	-36	7	-6	-23	i	-7	48	0
CN(C)CCN1C(=O)C(O)=C(C(=O)c2cc3ccccc3o2)C1c1ccccn1 (stereo unspecified)	/	/	/	/	i	-10	-1	6
CCOc1ccc(NC(=O)c2ccc(NS(=O)(=O)c3cccc4cccnc34)cc2)cc1	6	2	0	-5	/	/	/	/
Cc1ccc(S(=O)(=O)NCCCOC(=O)Nc2ccncc2)cc1	/	1	-7	-14	i	5	1	4
COC(=O)c1ccccc1NC(=O)C(C)NS(=O)(=O)c1ccc(OC)cc1 (stereo unspecified)	/	-3	-3	3	i	-5	-3	-3
CCOC(=O)c1cc(-c2ccccc2)n(CCC(=O)N2CCN(c3ccccc3OC)CC2)c1C	31	-6	-10	18	i	-4	-6	-12
COC(=O)C1=C(C(=O)OC)[C@@H]2Nc3ccccc3[C@@]23C[C@@H](C(=O)OC)N(C(=O)c2cc(C)oc2C)C3=N1	-14	-5	3	0	i	/	-9	/
CCN(CC(=O)Nc1ccccc1OC)C(=O)CN1C(=O)NC2(CCCC2)C1=O	-37	4	4	/	i	/	-12	/
O=C(O)/C(=C\c1ccc(Cl)cc1)c1ccc(S(=O)(=O)N2CCCC2)s1	10	2	-2	-3	/	/	/	/
Cc1nnc(SCC(=O)N2CCC(c3noc4ccc(F)cc34)CC2)s1	/	-8	-13	11	i	5	-1	0
CC1(C)CC2(CCO1)C(Nc1ccccc1)=NC(=S)N2c1ccccc1 (stereo unspecified)	-2	/	/	/	i	2	0	0
NC(=O)CSc1nnnn1-c1ccc2c(c1)OCCO2	/	-5	0	-19	i	-9	-23	-14
Cc1nn(CC(=O)Nc2ccc(F)cc2)c(=O)c2ccccc12	0	0	3	-14	i	-5	6	-6

Arranged by number of heavy atoms (high to low): some entries from above.
SMILES	HIV Env fusion	MT1-MMP act inh	MT1-MMP act inh RFP	Yeast UUG start	Rce1 inhib	eIF4H FP inh	CSC inhib	PABP FP inh	others
COC(=O)c1ccccc1NC(=O)C(C)NS(=O)(=O)c1ccc(OC)cc1 (stereo unspecified)	/	-3	-3	3	i	-5	-3	-3
Cc1nn(CC(=O)Nc2ccc(F)cc2)c(=O)c2ccccc12	0	0	3	-14	i	-5	6	-6
Nc1nc(N)c(N=Nc2ccc(SCC(=O)O)cc2)c(=O)[nH]1	10	-1	2	-15	i	3	-3	14

Back to the main list; the 4 compounds before the break are reprinted first.
SMILES	HIV Env fusion	MT1-MMP act inh	MT1-MMP act inh RFP	Yeast UUG start	Rce1 inhib	eIF4H FP inh	CSC inhib	PABP FP inh	others
Cc1nnc(SCC(=O)N2CCC(c3noc4ccc(F)cc34)CC2)s1	/	-8	-13	11	i	5	-1	0
CC1(C)CC2(CCO1)C(Nc1ccccc1)=NC(=S)N2c1ccccc1 (stereo unspecified)	-2	/	/	/	i	2	0	0
NC(=O)CSc1nnnn1-c1ccc2c(c1)OCCO2	/	-5	0	-19	i	-9	-23	-14
Cc1nn(CC(=O)Nc2ccc(F)cc2)c(=O)c2ccccc12	0	0	3	-14	i	-5	6	-6
COC(=O)c1sc2ncccc2c1OCc1c(Cl)cccc1Cl	-47	-3	-8	-21	i	-5	4	-9
COC(=O)N(NC(=O)C(O)(CCC(C)C)CCC(C)C)c1ccccc1	3	-5	-3	1	i	4	-9	2
CCCCOc1ccc(CSCCNC(=S)Nc2ccccc2)cc1	18	0	-10	/	i	-5	46	-13
COc1cccc(CN2CC(C(=O)N(C)Cc3nc4ccc(F)cc4[nH]3)CCC2=O)c1 (stereo unspecified)	1	-9	-6	-8	i	-2	/	15
CC1(C)Cc2c(C#N)c(NCCCO)nc(-c3ccccc3)c2CO1	7	-2	1	17	i	0	-11	6
CC(C)Oc1ccc(OCCn2c(S(=O)(=O)O)nc3c(N)ncnc32)cc1	-5	-2	-2	-20	i	-2	-5	1
CCOC(=O)c1ccccc1NC(=O)CSc1nc2[nH]ncc2c(=O)[nH]1	17	-1	-1	/	i	/	5	/
Cc1nc(NC(=O)CSc2nnc(Cn3nnc4ccccc43)n2C)sc1C	5	3	4	/	i	-1	-2	-11
Cn1c(C(N)=O)cnc1Sc1ncc(C(F)(F)F)cc1Cl	/	1	2	-19	i	-7	-23	-1
O=C(c1cccc(S(=O)(=O)N2CCCC2)c1)N1CCOCC1	-1	-1	-1	-15	/	/	/	/
CC(C)C[C@@H](CO)N1CCN(C)CCC1=O	14	1	4	-12	i	9	-15	-1
Cc1nnc(-c2cnn(-c3ccccc3)c2N)n1Cc1ccccc1	-9	0	4	-19	i	-11	-10	-15
COc1ccccc1C(=O)COC(=O)Cc1ccccc1F	-60	-1	0	-7	/	/	-25	/
CNC1(C)[C@H]2CC[C@H](C2)C1(C)C (stereo partly specified)	31	0	4	-4	/	/	/	/
COC1C(C)=C(C)C(=O)N1Cc1ccc(F)cc1 (stereo unspecified)	2	-8	-3	-15	i	0	2	-4
Cc1cccc(C(=O)OCC(=O)NC(C)CCc2ccccc2)c1O (stereo unspecified)	12	-3	0	-5	i	1	-3	10
CCn1c(CNc2ccc(OC)cc2)nnc1SCC(=O)N1CCCc2ccccc21	-17	-3	0	-40	i	4	/	10
COCCNC(=O)C1CCCN(Cc2ccc(C(C)C)cc2)CC1 (stereo unspecified)	-7	-2	0	-18	/	/	/	/
COC(=O)COc1ccc(-c2ccccc2)cc1C=O	-21	5	4	/	i	14	-3	-4
CCOC(=O)c1c(N)sc(C(N)=O)c1C	-209	-3	0	7	i	-3	-14	3
COCC(=O)Nc1cc(Cl)c(OC)cc1OC	-3	-1	5	/	i	-4	2	-9
CC(C)(C)OC(=O)N(CCc1ccccc1)Cc1ccc(OCc2cccc(NC(=O)C3CC3)c2)cc1	53	-9	-28	-8	/	/	/	/
COc1ccc(N2CCN(CC(O)COCc3ccccc3)CC2)cc1 (stereo unspecified)	2	3	4	-7	i	-5	-1	-4
CN(C)CC(O)CN1C(=O)NC(C)(C)C1=O (stereo unspecified)	7	0	0	/	i	6	2	1
Cc1ccc(S(=O)(=O)Nc2cccc(C(=O)NCc3cccnc3)c2)cc1F	29	-5	-15	-11	i	/	59	/

The listing continues.
SMILES	HIV Env fusion	MT1-MMP act inh	MT1-MMP act inh RFP	Yeast UUG start	Rce1 inhib	eIF4H FP inh	CSC inhib	PABP FP inh	others
O=C(c1cccs1)N1CCc2c([nH]c3ccccc23)C1c1ccc(Cl)cc1 (stereo unspecified)	/	-8	-11	-18	i	5	6	9
O=C(c1ccncc1)c1ccc(NC(=O)c2cccs2)cc1	7	-1	-2	-29	i	-6	-5	-3
CCN(CC)C(=O)[C@H]1C[C@H](CC(=O)NCc2ccc(OC)c(OC)c2)C(=O)N2CCc3c([nH]c4ccc(Cl)cc34)[C@]12C	10	-2	-10	-10	/	/	/	/
COc1ccc(-n2nc(C(=O)NCC(=O)NCc3ccco3)c3ccccc3c2=O)cc1	-103	3	3	/	i	0	-2	-2
O=C(Nc1nc(COc2ccccc2)cs1)C12CC3CC(CC(C3)C1)C2	68*	-31	-37	-10	i	-6	65	-4
CC1Cc2ccccc2N1c1ncnc2c1nnn2Cc1ccccc1 (stereo unspecified)	13	2	-13	-42	i	-5	/	9
O=C(COc1ccccc1Cl)NCCCN1CCOCC1	-8	0	6	-20	i	-1	-10	-7
O=C(Nc1cccc(C(=O)O)c1)Nc1ccc2c(c1)OCO2	83*	2	7	-83	i	5	4	-1
CCC(=O)N1CCC(C)(C(=O)Nc2ccc(OC)c(OC)c2)C1 (stereo unspecified)	-14	-1	0	-10	/	/	/	/
CC1(C(=O)O)Sc2[nH]c(=O)sc2C2c3ccccc3OC(=O)C21 (stereo unspecified)	/	-1	-2	-1	i	15	-9	36
CC(C)(C)c1ccc(Cc2n[nH]c(=S)[nH]c2=O)cc1	7	2	-3	-12	i	-12	-1	4
CC(=O)Nc1cccc(-c2ccnc3c2CC(C)(C(=O)Nc2ccccc2)O3)c1 (stereo unspecified)	-20	0	-2	1	/	/	/	/
COc1ccc(C(=O)NCCOc2cccc(Oc3ccccc3)c2)cc1OC	3	2	-8	-4	/	/	-5	/
CCn1c(C)[n+](CCCS(=O)(=O)[O-])c2cc(Cl)c(Cl)cc21	-8	-7	-3	-10	i	11	7	24
O=C(O)c1cccc(N2C(=O)/C(=C/c3ccc(SCc4ccc(Cl)cc4)o3)SC2=S)c1	-21	-27	22	/	/	83	/	-16	eIF4H FP inh retest=-12;PABP FP inh retest=6
C=CCn1c(CSc2nnc(-c3ccccc3)n2C)n[nH]c1=S	-3	1	-1	-8	i	2	-2	3
O=C(CC1SC(N2CCCCC2)=NC1=O)Nc1cccc(C(=O)NCc2ccc(F)cc2)c1 (stereo unspecified)	-6	1	-2	-14	/	/	/	/
CC(C)c1cc(C(=O)N2CCCC(N3CCN(c4ccc(F)cc4)CC3)C2)no1 (stereo unspecified)	-2	0	-3	-11	i	-3	7	5
Cc1noc(C)c1COC(=O)C1CC(O)CN1S(=O)(=O)c1ccc(Cl)cc1 (stereo unspecified)	-85	2	7	-10	i	-7	-21	-5
Cc1c(-c2cc(Br)ccc2O)nc2cc3c(cc2c1C)OCO3	-33	0	-1	-21	i	3	-4	8
O=C(COC(=O)CN1C(=O)C2CCCCC2C1=O)Nc1ccc(S(=O)(=O)N2CCOCC2)cc1 (stereo unspecified)	-3	0	7	2	i	-1	/	12
CCOC(=O)c1cccc(NC(=O)CCc2nnc3ccc(N4CCN(C)CC4)nn23)c1	9	-2	1	-17	i	4	-12	2
Cc1occc1C(=O)NC1CCCCCC1	/	0	1	-19	i	5	-9	0
CCOc1ccc(C(CC(=O)O)NC(=O)C2c3ccccc3Oc3ccccc32)cc1 (stereo unspecified)	-10	3	4	-7	i	0	10	-8
COc1ccc(S(=O)(=O)N2CCC(NC(=O)N3CCOCC3)CC2)cc1	-8	0	1	/	i	-2	6	50
CCCCC(=O)Nc1ccc2c(c1)nc(CCN1CCN(C)CC1)n2C	-43	-2	1	/	i	-3	-20	1
Cc1cc(Cl)ccc1OCC(O)CNCCc1ccc(S(N)(=O)=O)cc1 (stereo unspecified)	-8	-1	2	-12	i	7	-7	0

High-throughput results as filed in PubChem BioAssay.
